# eIF4H FP inh: inhibitors of RNA binding by human eIF4H. eIF4H fluorescence polarization binding assay. inhibition, % at 35 µM. 0.94% of 290,000 active. Q15056;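 active = 50% or more with normal probe brightness, or confirmed in later tests; inconclusive = above 50% with abnormal brightness, or retests that disagree; inactive = below 50% or failed in later tests; about a fifth of its hits are not listed in these tables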;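 note: calls also rest on retests at 20 µM and on dose response follow-up; 0% = protein and probe with vehicle and 100% = probe without protein; strong numbers were not always called active; many hits fall short of the cut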
# MT1-MMP act inh: MT1-MMP (human) activation inhibition. AID 651647. 0.061% of 360,000 active. HT1080 RFP-PRO-GFP cells, GFP/RFP ratio fluorescence, overnight; percent of plate control window, DMSO zero. GFP/RFP ratio change, % at 20 µM. P50281;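 active = GFP/RFP ratio change of at least 30% with cell ATP level not reduced by more than half and red fluorescence within 50% of control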; note: strong numbers were not always called active
#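 Compound: 20 µM single dose, 1% DMSO / System: HT1080 RFP-PRO-GFP cells / Controls: DMSO and RFP-L50D-GFP cell wells / Read-out basis: GFP/RFP fluorescence ratio / Schedule: overnight compound exposure at 37 °C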
# CSC inhib: blocks cancer stem cells; cancer stem cell-like cells viability, luminescence; inhibition, % at 7.5 µM; 1.1% of 300,000 active;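 active = mean at 75% or more and at least half the replicates too; inconclusive = mean and replicates disagree; tested in HMLE shEcad cells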;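 note: 0% = median of negative and 100% = median of positive control wells; the first replicate is given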
# PABP polyA inh: PABP-poly(A) binding inhibition | PABP-poly(A) RNA binding, fluorescence polarization | inhibition, % at 35 µM | 1% of 290,000 active | AID 2014;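 active = 50% or more with normal probe brightness, or confirmed in later tests; inconclusive = above 50% with abnormal brightness, or retests that disagree; inactive = below 50% or failed in later tests; about a fifth of its hits are not listed in these tables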;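 note: calls also rest on retests at 20 µM and on dose response follow-up; controls were probe without protein and protein plus probe with vehicle; some compounds called inactive have numbers as strong as hits; many hits fall short of the cut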
# Target sequence (P11940 whole entry, looked up): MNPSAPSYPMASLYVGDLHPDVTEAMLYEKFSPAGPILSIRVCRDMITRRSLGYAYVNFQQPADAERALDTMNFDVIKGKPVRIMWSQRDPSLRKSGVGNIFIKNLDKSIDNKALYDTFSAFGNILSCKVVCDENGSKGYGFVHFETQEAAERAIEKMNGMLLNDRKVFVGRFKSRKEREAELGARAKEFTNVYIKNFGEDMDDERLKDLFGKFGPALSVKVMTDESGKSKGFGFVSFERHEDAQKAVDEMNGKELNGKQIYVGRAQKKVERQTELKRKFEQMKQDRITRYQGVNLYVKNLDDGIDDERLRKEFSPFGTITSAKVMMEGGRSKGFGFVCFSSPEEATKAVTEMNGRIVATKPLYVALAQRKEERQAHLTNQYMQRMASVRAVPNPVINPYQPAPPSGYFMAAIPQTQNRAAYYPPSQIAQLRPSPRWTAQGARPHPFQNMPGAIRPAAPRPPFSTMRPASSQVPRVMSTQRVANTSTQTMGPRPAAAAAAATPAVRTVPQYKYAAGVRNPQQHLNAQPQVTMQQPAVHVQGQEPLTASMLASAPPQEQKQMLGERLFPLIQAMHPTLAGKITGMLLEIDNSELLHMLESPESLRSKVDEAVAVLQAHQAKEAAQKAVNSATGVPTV
# Rce1 inh: inhibitors of yeast Ras-converting enzyme; yeast membranes, quenched prenylated peptide cleavage fluorescence; AID 2563; Q03530; 0.27% of 290,000 active; calls only;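 active = fall in fluorescence gain of 50% or more versus controls, with final raw signal at or below 3038400; inconclusive = same 50% fall but final raw signal above 3038400; inactive = fall in fluorescence gain under 50%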;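 note: plate controls were neutral control wells for no effect and wells lacking membranes for full effect; tested at 10 µM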
# Target sequence (Q03530 whole entry, looked up): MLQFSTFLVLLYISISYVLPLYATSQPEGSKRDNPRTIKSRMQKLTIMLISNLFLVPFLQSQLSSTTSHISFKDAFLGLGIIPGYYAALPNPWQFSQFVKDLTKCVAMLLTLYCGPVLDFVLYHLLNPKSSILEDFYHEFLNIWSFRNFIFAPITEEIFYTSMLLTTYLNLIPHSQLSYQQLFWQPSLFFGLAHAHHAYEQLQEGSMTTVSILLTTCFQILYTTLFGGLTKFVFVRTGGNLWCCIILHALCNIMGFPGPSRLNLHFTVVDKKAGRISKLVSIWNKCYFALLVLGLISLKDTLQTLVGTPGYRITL
# Yeast UUG start: modulators of start codon recognition fidelity in yeast. S. cerevisiae UUG-firefly luciferase reporter, luminescence/redox ratio. activity score, % at 18.7 µM. 0.13% of 350,000 active;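 active = replicate mean at a twofold rise or more, about +100% in these data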;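 note: firefly luciferase made from a UUG start codon reports start codon fidelity; reporter light over untreated wells divided by growth signal over untreated wells; some hits fall short of that in this replicate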
# HIV Env fusion: HIV envelope-mediated fusion inhibition; HeLa-JRFL Env/CEM21 cell fusion, luciferase; inhibition, % at 12.3 µM; 1.1% of 360,000 active;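 active = mean replicate inhibition score of at least 50 and every replicate individually at or above 50; inconclusive = only one of the two criteria met; inactive = mean below 50 and not all replicates reaching 50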;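 note: 0% = plate neutral controls and 100% = maraviroc near 300 nM; one replicate is shown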
# MT1-MMP act inh RFP: also measured in MT1-MMP act inh; calls as there; RFP signal change, %; measured here: RFP expression control read;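 0 = vehicle wells; hits needed this value within 50% of zero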
# * hit, by the source's call; i = inactive; u = inconclusive; x = no result given; & = joins results of further samples.
# Sample of the layout, 5 compounds:
Molecule	Rce1 inh	MT1-MMP act inh RFP	Yeast UUG start	HIV Env fusion	eIF4H FP inh	CSC inhib	MT1-MMP act inh	PABP polyA inh
Cc1ccc(S(=O)(=O)NCC2CCC(C(=O)NCc3ccccn3)CC2)cc1 (centres undefined)	i	0.9	30.0	8.6	5.7	-15.0	-1.8	31.0
CC(=O)N[C@@H](CC(=O)O)C(=O)O	x	7.2	-0.9	-9.3	x	-4.9	6.5	x
O=C(OCCCN=C1NS(=O)(=O)c2ccccc21)c1ccccc1F	i	3.0	0.2	9.3	-1.4	4.4	0.6	0.3
Cc1cc2cccc(C)c2nc1SCC(=O)NCC1CCCO1 (centres undefined)	i	-1.2	0.5	-10.4	-4.4	2.1	-5.3	0.4
CN1CCN(NC(=O)c2ccc(F)cc2)CC1	i	0.7	-29.7	x	2.9	-15.3	-3.6	2.9

# The list itself (from the top)
Molecule	Rce1 inh	MT1-MMP act inh RFP	Yeast UUG start	HIV Env fusion	eIF4H FP inh	CSC inhib	MT1-MMP act inh	PABP polyA inh
Cc1ccc(S(=O)(=O)NCC2CCC(C(=O)NCc3ccccn3)CC2)cc1 (centres undefined)	i	0.9	30.0	8.6	5.7	-15.0	-1.8	31.0
CC(=O)N[C@@H](CC(=O)O)C(=O)O	x	7.2	-0.9	-9.3	x	-4.9	6.5	x
O=C(OCCCN=C1NS(=O)(=O)c2ccccc21)c1ccccc1F	i	3.0	0.2	9.3	-1.4	4.4	0.6	0.3
Cc1cc2cccc(C)c2nc1SCC(=O)NCC1CCCO1 (centres undefined)	i	-1.2	0.5	-10.4	-4.4	2.1	-5.3	0.4
CN1CCN(NC(=O)c2ccc(F)cc2)CC1	i	0.7	-29.7	x	2.9	-15.3	-3.6	2.9
O=c1c(-c2ccccc2)c(O)cc(-c2ccncc2)n1-c1ccc(Cl)cc1	i	4.5	-10.6	16.6	-3.7	x	2.2	6.5
Oc1ccccc1C1=Nc2ncnn2C(c2ccc(F)cc2)C1 (centres undefined)	i	-0.8	x	x	-2.8	-4.2	-0.8	2.7
Cc1ccc(C(=O)NN2CCOCC2)cc1[N+](=O)[O-]	i	-0.7	-7.9	0.7	-2.9	-6.1	0.2	-0.5
COCCN(Cc1cc2c(C)cc(C)cc2nc1Cl)C(=O)c1ccccc1F	i	-15.7	x	22.5	-2.1	-16.1	3.3	-5.5
Cn1c(SCc2cccc(Br)c2)nc2c1c(=O)[nH]c(=O)n2C	i	-4.8	-12.6	13.0	16.4	-15.1	0.3	-2.1
C[C@@H]1CN([C@@H](C)CO)C(=O)CCCn2nncc2CO[C@@H]1CN(C)C(=O)NC1CCCCC1	x	10.8	-4.7&-9.9&-6.3	-0.3	x	x	-1.5	x
O=C(Nc1ccon1)c1ccc(Br)s1	i	-2.0	-2.1	-66.4	-13.1	1.4	-0.6	7.4
COc1ccc(CN(CC(O)COCc2ccccc2)S(=O)(=O)c2ccccc2Br)cc1 (centres undefined)	x	-8.0	-16.6	-16.5	x	x	3.7	x
Cc1ccc2c(c1)c1c3n2CCN(CCC(=O)O)C3CCC1 (centres undefined)	i	3.3	-2.8	-10.7	1.9	-6.8	3.0	2.2
CCc1ccc(NC(=O)N(CCCN2CCOCC2)Cc2cccs2)cc1	i	1.4	-27.0	6.1	-9.4	-4.3	-2.7	-0.4
Cc1c(C(=O)Nc2cccc(Cl)c2)cn2c(nc3ccccc32)c1C#N	i	-1.6	-14.3	17.9	15.4	5.6	0.4	-9.1
COc1cc2c(c(OC)c1OC)C(c1ccc(O)cc1)CC(=O)O2 (centres undefined)	x	5.0	-16.5	23.3	x	x	0.6	x
Cc1cccc2sc(NC(=O)CCNS(=O)(=O)c3cccc4nonc34)nc12	x	-12.5	47.6	-0.9	-0.6	4.9	-10.7	6.3
COc1ccc(NC(=O)N2CCCC2C(=O)NCc2cccs2)cc1 (centres undefined)	i	-6.5	5.1	4.4	-1.1	-3.8	0.3	1.9
CC(=O)c1ccccc1NC(=O)COC(=O)C1CCCN1S(=O)(=O)c1ccccc1F (centres undefined)	x	4.5	-7.5	x	x	4.7	1.8	x
CCOC1OC(=O)C(Cl)=C1Nc1ccc(C)cc1 (centres undefined)	i	1.0	-30.4	5.2	-7.6	5.4	2.9	10.2
CCCc1nnc(NC(=O)c2ccc(N3C(=O)C4C5C=CC(C5)C4C3=O)cc2)s1 (centres undefined)	i	2.1	5.1	x	-12.1	-5.8	24.4	-4.5
Oc1cccc(NC(=S)Nc2ccccc2)c1	i	2.6	-19.3	2.7	-2.9	-10.2	-2.1	11.0
CCN(CC)c1c([N+](=O)[O-])c(=O)n(CC)c2ccccc12	i	-5.0	-9.4	13.2	-11.9	8.9	4.2	-3.3
O=C(NNC(=O)C1CCN(c2ncccn2)CC1)c1ccc(Cl)cc1	i	-1.7	x	-12.0	4.6	x	-2.3	-3.9
COC(=O)C1(Cc2ccccc2)NC(c2ccccc2C)C2C(=O)N(c3ccc4c(c3)OCO4)C(=O)C21 (centres undefined)	i	-6.1	-13.3	x	1.3	-2.1	-6.3	0.6
O=C(O)C1CN(c2ncccc2[N+](=O)[O-])C1	i	1.9	-8.0	-16.2	12.3	-6.9	0.4	12.2
COc1ccc(NS(=O)(=O)c2ccc(C(=O)NCC3(N4CCOCC4)CCCCC3)cc2)cc1	x	-3.0	x	-8.6	x	-1.8	2.2	x
O=C(N/C(=C/c1ccc(Cl)cc1)C(=O)N1CCCCC1)c1ccco1	i	0.7	1.8	-13.6	-4.3	-12.8	-1.3	-9.0
O=C(c1ccc([N+](=O)[O-])s1)N1CCN(c2ncccn2)CC1	x	-0.7	-2.3	-6.8	x	x	4.7	x
CCOc1ccc(NC(=O)N2CCN(C(=O)c3ccco3)CC2)cc1	i	2.9	-20.3	5.0	-6.6	-6.8	1.4	-3.2
CC(=O)c1ccc2c(c1)N(CCCN1CCC(CCO)CC1)c1ccccc1S2	x	-5.9	-37.2	7.8	x	11.1	-8.4	x
O=C(COC(=O)c1ccco1)c1ccccc1	i	3.5	-22.3	-10.9	2.9	8.6	0.6	-5.7
CC(C)=C(NC(=O)c1ccccc1)C(=O)N/N=C/c1ccc(O)cc1	i	5.2	-13.7	8.5	-3.9	-22.4	0.4	1.7
CCOC(=O)C(=O)/C(C#N)=C/Nc1ccc(Cl)cc1	i	-1.2	-8.2	x	-7.7	32.6	1.5	11.0
COc1ccc(C(=O)Nc2ccc3c(c2)OCCO3)cc1[N+](=O)[O-]	i	2.9	x	1.6	2.3	-0.7	4.7	-5.0
CCN(CC)C(=O)c1cnn(-c2ccccc2)c1NC(=O)c1ccccc1F	i	3.4	-11.7	x	0.9	1.7	-0.2	-4.8
Cn1c(SCC(=O)NCc2ccc(F)cc2)ncc(C(=O)Nc2ccccc2)c1=O	i	-3.3	-9.9	-28.0	x	-4.6	-2.7	x
CCOC(=O)Cc1csc(NC(=S)NC(=O)C(C)(C)C)n1	i	-6.5	x	-4.2	-6.4	-1.0	1.0	-7.7
O=C(CCN1C(=O)c2ccccc2C1=O)Nc1ccccc1C(F)(F)F	i	1.1	-8.5	-12.3	7.0	-23.3	5.7	9.0
CC1(C)CC(=O)C=C(c2ccc(COC(=O)c3cc(F)cc(F)c3)cc2)C1=O	x	-2.0	-9.5	-44.2	x	x	0.4	x
COc1ccc(NC(=O)Cn2nnc(-c3ccccc3NC(=O)c3cccs3)n2)cc1	i	-4.0	10.7	x	-1.6	-1.0	-0.8	-7.0
CNCc1ccccc1OCC(=O)Nc1ccccc1	i	-2.7	-20.0	-78.7	-6.7	2.2	-3.9	0.2
CCOc1ccc(/C=C/C2=CC(C)(C)NC(=S)N2)cc1	i	-4.6	x	14.4	-5.8	x	-2.5	5.2
Cc1ccc2nsnc2c1NC(=O)c1cccnc1Cl	x	0.0	-20.9	10.7	3.4	-3.5	-0.4	-3.9
CC1(C)OC(=O)C(=CNCC(=O)NCC(=O)O)C(=O)O1	i	3.7	0.0	-6.0	-11.5	-9.9	-2.1	-8.6
CC(C)=CCc1c(O)ccc(C(=O)Cc2ccccc2)c1O	i	0.0	-16.4	x	3.1	96.6*	8.3	-5.8
CC(NS(=O)(=O)c1cc2c3c(c1)CCC(=O)N3CCC2)c1ccccc1 (centres undefined)	i	-2.8	-16.6	9.2	x	x	1.6	x
CCOc1ccc(S(=O)(=O)N2CCN(c3ccc(C)cc3C)CC2)cc1	i	-4.2	8.0	-0.9	0.0	8.8	2.5	-6.5
CN(C)c1ccc(N=Nc2ccccc2C(=O)OCC(=O)N2CCCCCC2)cc1	i	-12.5	x	-11.3	-2.5	18.8	24.6	-1.2
COc1ccc(NC(=O)c2cc(-c3ccc(C)cc3O)n[nH]2)c(OC)c1	i	0.5	-15.6	-4.3	6.2	13.2	2.1	-6.4
Fc1ccccc1Cn1c2[n+](c3ccc(C(F)(F)F)cc31)CCCCC2	i	-5.7	-15.4	8.3	0.2	-2.0	-3.9	7.2
Cn1cc(S(=O)(=O)NC(c2ccccc2)c2ccccc2)c(=O)n(C)c1=O	i	-1.6	4.1	5.2	-11.2	-7.7	-0.6	1.7
COCCNc1nc(-c2cc3ccccc3o2)cs1	i	-3.2	x	-366.3	-15.2	10.7	3.0	-12.2
COc1cc(NC(=S)Nc2ccccn2)cc(OC)c1	i	0.4	x	-32.8	-5.4	-22.5	-2.1	1.9
NS(=O)(=O)c1cc2c(cc1Cl)NC(CC1CCCC1)NS2(=O)=O (centres undefined)	i	-0.1	x	-0.6	4.8	-16.5	3.0	4.6
O=C(Cn1nc(Cl)nc1Cl)c1ccccc1	x	3.3	-19.4	-55.8	-14.4	-16.8	-1.3	4.1
CCC(=O)N1CCCC1(C)C(=O)Nc1cccc(Oc2ccccc2)c1 (centres undefined)	x	-1.5	-1.6	-0.3	x	x	0.4	x
C[C@H](CO)N1C[C@H](C)[C@@H](CN(C)C(=O)NC2CCCCC2)Oc2ccc(NC(=O)Cn3cnnn3)cc2C1=O	x	4.2	-4.3&0.8	-9.3	x	-20.0	-0.6	x
Cc1ccc(Nc2nc(N)nc(CSC(=S)N3CCN(c4ccccc4)CC3)n2)cc1	i	7.0	-24.5	-14.5	-12.0	u	3.5	-8.0

# The listing continues:
Molecule	Rce1 inh	MT1-MMP act inh RFP	Yeast UUG start	HIV Env fusion	eIF4H FP inh	CSC inhib	MT1-MMP act inh	PABP polyA inh
COc1ccc2cc(S(=O)(=O)N3CCCC3)ccc2c1	i	-1.7	-8.1	15.1	2.3	4.4	2.5	0.9
CCCCC(=O)NCCc1cc2c(OC)ccc(OC)c2[nH]c1=O	i	2.9	-3.5	x	-5.9	1.3	4.7	-12.1
NS(=O)(=O)c1ccc(CCNC(=O)c2ccc(NS(=O)(=O)c3ccc4[nH]c(=O)[nH]c4c3)cc2)cc1	i	-0.3	-15.3	-2.1	x	-9.6	0.3	x
Cc1ccc(C(=O)NCCOc2ccc(Cl)cc2)cc1	i	1.5	x	-23.2	-2.1	-5.0	2.9	4.9
CCOC(=O)c1cc(-c2ccccc2)sc1NC(=O)C(C)Sc1nnc(N)s1 (centres undefined)	i	-6.3	-19.3	24.5	-1.6	x	-0.9	-9.5

# Screening data: PubChem BioAssay, several laboratories
